# E coli growth = blocks Escherichia coli growth. OD600, 23 h; active compounds read low. OD600 absorbance (concentration not given with the values). 0.21% of 330,000 active. AID 1053175;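 active = OD600 absorbance below the run mean of sample wells minus 3.6 SD, in any replicate, cut at about 0.56 in these data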;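 note: stock transfer was 300 nL into about 60 µL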
# Ecoli rRNA inh = selective bacterial rRNA inhibition in E. coli. E. coli WT GFP vs humanized-ribosome RFP mutants, fluorescence, 24 h; active compounds read low; DMSO median 0, no signal -100. AID 720706. 1.6% of 350,000 active. GFP signal change (wild-type ribosome), % (no concentration beside the values);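 active = significant combined selectivity score with lowered wild-type GFP, culture density cut under 30%, mutant RFP and density less affected; inactive = any of these conditions unmet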; note: one replicate is shown; some compounds called inactive have numbers as strong as hits
# FGF22 binding = FGF22 (human) thermal shift binding; Q9HCT0; calls only at 9.99 µM; 1.5% of 340,000 active; recombinant FGF22 thermal shift, SYPRO orange fluorescence; percent of sucrose octasulfate shift, DMSO zero;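 active = melting point raised past a set limit in the mean and every replicate; inconclusive = no clear call; three in four hits are not shown here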
# Target sequence (Q9HCT0 whole entry, looked up): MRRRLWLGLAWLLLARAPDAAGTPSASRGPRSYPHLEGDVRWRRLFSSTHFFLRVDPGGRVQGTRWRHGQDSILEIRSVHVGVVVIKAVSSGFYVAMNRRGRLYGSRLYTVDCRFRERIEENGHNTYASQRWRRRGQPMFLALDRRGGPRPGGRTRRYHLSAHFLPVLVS
# ALR inh = inhibitors of human sulfhydryl oxidase ALR. P55789. purified ALR, DTT oxidation, H2O2 HRP-luminol luminescence. inhibition, % (test concentration not listed). 3.8% of 290,000 active. AID 485317;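 active = mean and each replicate at 75% or more; inconclusive = only one of the two met; inactive = neither met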;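 note: stock transfer was 7.5 nL into about 7.5 µL; 0% = neutral wells and 100% = wells with inactivated enzyme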
# Target sequence (P55789 whole entry, looked up): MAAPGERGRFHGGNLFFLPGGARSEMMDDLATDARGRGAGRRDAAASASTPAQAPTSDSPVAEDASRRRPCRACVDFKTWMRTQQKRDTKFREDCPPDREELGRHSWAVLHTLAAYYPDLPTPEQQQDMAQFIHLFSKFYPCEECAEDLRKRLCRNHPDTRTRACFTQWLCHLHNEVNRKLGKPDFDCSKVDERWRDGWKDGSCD
# Vif A3G = inhibitors of Vif binding to APOBEC3G peptide, primary screen, biochemical, TR-FRET, GST-Vif 1-94, biotin-A3G peptide, dose response retest (AID 1117319). TR-FRET GST-Vif / biotin-A3G peptide binding; higher % means a stronger effect; test concentration not given here; strong numbers were not always called active. inhibition, %, or IC50 in µM where a hit was titrated. 0.57% of 260,000 active;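 active = above the screen mean plus three standard deviations and confirmed in dose response; inconclusive = results disagree or hit not tested in dose response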;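 note: Vif residues 1-94 fused to GST binding biotinylated APOBEC3G peptide 110-148; 0% = full assay without inhibitor and 100% = GST in place of GST-Vif; retest series ran down from 100 µM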
# AF4-AF9 inh = blocks AF4 peptide binding to human AF9; P42568; 0.47% of 350,000 active; inhibition, % at 10 µM; AlphaScreen, biotin-AF4 peptide binding to FLAG-AF9;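 active = every replicate reaching a set inhibition limit, whatever the replicate mean, cut at about 25% in these data; inconclusive = mean inhibition reaches that limit but some replicates miss it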;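 note: 0% = plate neutral control median and 100% = total signal loss; the record names both 10 and 1 µM as test concentration; the first replicate is given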
# HNF4A DNA FP = change in binding of human HNF4 alpha to DNA; HNF4a-FITC DNA binding, fluorescence polarization, 1 h; P41235; activity change, % at 10 µM; AID 1224865; 0.3% of 360,000 active; in the data active = activity change above about 30%, passing the limit was not always enough;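 note: controls were the assay level and a saturating level of protein; the project sought stronger binding though the title names inhibitors; some compounds called inactive have numbers as strong as hits; positive values seem to mean higher polarization but the record does not say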
# Target sequence (P41235 whole entry, looked up): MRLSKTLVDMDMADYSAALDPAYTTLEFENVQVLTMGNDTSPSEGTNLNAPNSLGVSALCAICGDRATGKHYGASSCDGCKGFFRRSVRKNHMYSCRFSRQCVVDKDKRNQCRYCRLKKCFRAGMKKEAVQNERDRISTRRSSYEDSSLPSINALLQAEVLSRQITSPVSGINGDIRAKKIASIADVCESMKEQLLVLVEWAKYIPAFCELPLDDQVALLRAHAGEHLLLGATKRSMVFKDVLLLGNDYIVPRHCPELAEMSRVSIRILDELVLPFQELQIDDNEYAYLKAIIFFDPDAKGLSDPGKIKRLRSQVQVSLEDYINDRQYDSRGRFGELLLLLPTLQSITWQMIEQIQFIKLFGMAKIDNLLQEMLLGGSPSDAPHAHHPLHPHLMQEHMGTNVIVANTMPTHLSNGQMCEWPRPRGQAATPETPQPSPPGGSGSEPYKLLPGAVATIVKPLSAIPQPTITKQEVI
# Ecoli rRNA inh OD600 = second read-out of Ecoli rRNA inh, no call of its own (marks repeat the call); OD600 change, %; measured here: OD600 growth;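 optical density of the mix in the first replicate; 0 = DMSO median and -100 = no signal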
# Ecoli rRNA inh RFP = second read-out of Ecoli rRNA inh, no call of its own (marks repeat the call); RFP signal change, %; measured here: RFP humanized mutant strains;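 first replicate; 0 = DMSO median and -100 = no signal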
# * = called active by the depositor; i = inactive; ? = inconclusive; . = not tested or not shown; & = joins results of further samples. A portion of the library; rates above refer to the full screens.
# Results follow in this order: E coli growth	Ecoli rRNA inh	Ecoli rRNA inh OD600	Ecoli rRNA inh RFP	FGF22 binding	ALR inh	Vif A3G	AF4-AF9 inh	HNF4A DNA FP
COc1ncnc2c1ncn2CCCN[C@H](C)c1cccc2ccccc12
    .	-1.6	-9.2	-3.1	i	.	1.9%	-2.1	-0.2
Cc1ccc(-c2nnc(Nc3ccc(CC(N)=O)cc3)c3ccccc23)cc1
    0.675	.	.	.	.	1.5	28.7%	.	-0.2
C=C(C)c1cccc(C(C)(C)NC(=O)N2CCC(C)CC2)c1
    0.801	.	.	.	.	.	2.0%	.	-1.2
Cc1nc(SCC(=O)Nc2ccc(Cl)cc2[N+](=O)[O-])nc(C)c1C
    0.7	.	.	.	.	.	8.3%	.	1.9
O=C(COC(=O)CSCC(=O)N1CCCCC1)NCc1ccc(F)cc1
    0.762	.	.	.	.	-3.3	4.0%	.	-1.1
Cn1c(SCc2nc(-c3cccs3)no2)nnc1C1CCCCC1
    0.707	.	.	.	.	-4.1	7.9%	.	-2.2
COc1cc(C(CC(=O)Nc2ccccn2)N2Cc3ccccc3C2=O)cc(OC)c1OC (centres undefined)
    0.672	13.6	14.8	0.5	i	-8.4	0.7%	1.1	1.7
CCOC(=O)C1C(=O)CC(C)(O)C(C(=O)OCC)C1c1ccc(SC)cc1 (centres undefined)
    0.659	9.7	-0.3	-0.9	i	-9.7	3.2%	-1.4	2.5
Cc1c(C#N)c(N=CN(C)C)c(C(=O)c2ccccc2)n1-c1ccc(Br)cc1
    0.707	.	.	.	.	.	1.8%	.	-0.8
CC(C)CN1CCC(C(=O)N2CCN(c3ccccc3F)CC2)CC1
    0.625	16.3	1.8	0.8	i	3.8	-2.2%	1.8	-2.8
C[C@H]1CCCCO[C@H](CN(C)C(=O)c2ccncc2)[C@@H](C)CN([C@@H](C)CO)C(=O)c2cc(NS(=O)(=O)c3cccs3)ccc2O1
    .	0.8	0.9	-3.0	i	.	.	-2.5	.
CCOc1cc(-c2noc(CCCC(=O)NC3CCCCC3)n2)ccc1OC
    0.693	4.2	7.5	2.3	i	0.4	.	-0.1	2.0
CCOC(=O)c1cc(=O)n2c(nc3ccccc32)[nH]1
    0.66	1.8	-5.1	-1.6	i	8.5	.	0.5	2.4
COc1ccc(CCC(=O)NNC(=O)c2cccs2)cc1
    0.661	9.0	7.9	-1.8	i	-0.8	-7.3%	-0.9	-1.2
CC(C)C(NC(=O)c1ccc([N+](=O)[O-])cc1Cl)C(=O)N1CCCC1 (centres undefined)
    0.704	-5.4	12.1	0.1	i	.	.	0.3	1.6
COc1ccccc1NC(=O)CC(NCCN(C)C)C(=O)O (centres undefined)
    0.7	.	.	.	.	-8.5	1.3%	.	3.6
CCOC(=O)c1ccccc1NC(=O)c1cccnc1
    0.701	.	.	.	.	-7.1	13.1%	.	4.8
O=C(c1cccs1)N1CCc2ccccc21
    0.68	.	.	.	.	-3.1	9.7%	.	-0.2
COc1ccc(CN(C)C[C@@H]2Oc3c(NS(C)(=O)=O)cccc3C(=O)N([C@H](C)CO)C[C@@H]2C)cc1
    .	-3.2	-8.8	0.5	i	.	.	-1.7	.
COc1cc(/C=C2/SC(=S)N(CCC(=O)N3CCN(C)CC3)C2=O)cc(OC)c1OC
    .	-2.2	12.4	7.9	i	.	5.3%	2.9	3.4
O=C(CN1C(=O)c2ccccc2C1=O)N1CCN(c2ccccn2)CC1
    0.623	.	.	.	.	-1.5	25.5%	.	3.7
Cc1c(NS(=O)(=O)c2cccc3nsnc23)c(=O)n(-c2ccccc2)n1C
    0.692	.	.	.	.	-23.0	.	.	0.3
Cc1cc(=O)oc2c(CN(C)Cc3ccccc3)c(O)ccc12
    0.681	.	.	.	.	-0.8	-1.9%	4.4	2.3
Cc1cc(N(C)/N=C/c2ccccc2)nc(-c2ccccc2O)n1
    .	17.6	21.6	0.8	i	-0.2	.	3.2	0.2
O=C(CSc1nnc(-c2ccco2)o1)Nc1ccccc1Cl
    0.714	0.3	-1.8	-1.3	i	-5.2	-3.7%	1.5	2.3
CNC[C@H]1Oc2cc(Br)ccc2S(=O)(=O)N([C@H](C)CO)C[C@H]1C
    .	-0.6&-2.5	14.2&19.1	2.0&0.7	i	.	-2.6%	1.5&-4.1&-2.2	1.1
Cc1ccc(SC[C@H](Cc2ccccc2)N2CCN(CCc3ccccc3)CCC2=O)cc1
    .	-14.3	-24.2	21.8	i	-18.6	.	2.8	-1.6
NNC(=O)CN1C(=O)Nc2ccc(Cl)cc2C1c1ccccc1 (centres undefined)
    0.675	9.8	7.6	-0.2	i	0.1	-8.2%	-1.1	3.6
Cc1ccc(S(=O)(=O)NCC(=O)OCCOc2ccccc2F)cc1
    0.706	-1.4	-5.6	1.6	i	-3.5	.	0.4	1.3
CC(C)(C)c1ccc(C(=O)NC(Cc2ccccc2)C(=O)O)cc1 (centres undefined)
    0.68	.	.	.	.	-1.1	6.0%	.	-1.0
CCOc1ccccc1NC(=O)c1cnccn1
    0.662	7.6	17.6	7.8	i	.	.	1.5	2.1
O=C1CC(=C2c3ccccc3-c3ccccc32)C(=O)N1CCN1CCN(c2ccccc2)CC1
    0.766	.	.	.	.	0.7	.	.	1.0
c1ccc(C2=Nn3c(nnc3-c3cc(-c4ccccc4)n[nH]3)SC2)cc1
    0.699	.	.	.	.	.	16.9%	.	1.7
CCOC(=O)c1c(C)[nH]c(C(=O)OCC(=O)NCc2ccc(C)cc2)c1C
    0.693	4.4	4.5	-1.2	i	-5.8	3.1%	3.5	3.1
C[C@@H]1CN([C@@H](C)CO)C(=O)c2cc(C#CC3CC3)cnc2O[C@@H]1CN(C)Cc1cccc(C(=O)O)c1
    .	0.0	14.7	-2.2	i	.	.	-1.8	.
Cc1nc(NC(=O)C2CC3CCCC(C2)C3=O)sc1C (centres undefined)
    0.773	.	.	.	.	-1.4	1.2%	.	2.4
CC(C)NC(=O)Nc1ccc2c(c1)C(=O)N([C@@H](C)CO)C[C@@H](C)[C@@H](CN(C)CC1CCCCC1)O2
    .	3.9	5.8	-0.8	i	.	.	-1.1	.
CCS(=O)(=O)c1ncc(Cl)c(C(=O)Nc2ccccc2OC)n1
    .	22.2	12.0	2.9	i	.	.	-1.4	-3.6
CN(C)C(/C=C/Nc1cccc([N+](=O)[O-])c1)=C(C#N)C#N
    .	5.2	5.5	1.3	i	-13.3	-0.7%	2.2	-2.9
COc1ccc(S(=O)(=O)NC(C)C(=O)Nc2cccc([N+](=O)[O-])c2)cc1 (centres undefined)
    0.698	.	.	.	.	3.9	.	.	-1.7
CO[C@H]1CN(C)C(=O)c2cc(NS(C)(=O)=O)ccc2OC[C@H](C)N(CCC(F)(F)F)C[C@@H]1C
    .	-1.9	4.5	0.0	i	.	.	-1.4	.
CCCC(=O)NC(=S)Nc1cccc(C(C)=O)c1
    0.689	.	.	.	.	.	7.3%	.	0.1
Cc1ccc2nc(Cl)c(/C=N/NC(=O)CN3CCOCC3)cc2c1
    .	2.2	-3.8	-1.7	i	0.2	.	2.7	1.9
COc1cc(C2C(C#N)=C(N)Oc3cc(O)ccc32)cc2c1OCO2 (centres undefined)
    0.675	.	.	.	.	61.0	16.1%	.	5.0
O=C(CCCN1CCC(NC(=O)c2ccccc2)CC1)c1ccc(Cl)cc1
    0.653	6.3	-2.0	1.7	i	-0.4	.	2.2	-1.5
Cc1ccc(SCc2ccc(C(=O)N3CCCC3)cc2)cc1
    0.64	-29.7	-40.5	-4.0	i	-31.8	-10.0%	-0.9	-1.4
O=C(Nc1cccc(F)c1)Nc1ccnn1C1CCN(C(=O)c2cscn2)CC1
    0.738	16.1	20.8	5.5	i	-7.6	7.6%	-4.1	-0.1
Cc1ccc(N/N=C/c2c(C)c(C#N)c(=O)n(C)c2O)cc1C
    0.728	.	.	.	.	.	91.3µM*	.	1.1
O=C(O)Cc1cccc2c(=O)cc(-c3ccccc3)oc12
    .	1.3	-4.4	-3.2	i	.	.	-3.2	1.3
O=C(N[C@@H]1C=C[C@H](CC(=O)N2CCOCC2)O[C@@H]1CO)c1cccc(F)c1
    .	2.4	1.7	-0.9	i	.	.	-1.5	.
C=CCN(CC=C)C(=O)CN1C(=O)NC(C)(c2ccc3cc(OC)ccc3c2)C1=O (centres undefined)
    0.704	-5.8	-16.2	4.5	i	-9.4	-7.7%	3.3	0.8
Cc1ccc(OCCn2nnc3ccccc32)cc1C
    0.696	-20.9	-40.5	-1.5	i	-5.1	1.2%	2.6	-0.8
COc1ccc(S(=O)(=O)Nc2cccc3c2O[C@H](CN(C)C(=O)Nc2c(C)noc2C)[C@H](C)CN([C@H](C)CO)C3=O)cc1
    .	-4.4	-1.5	-1.3	i	.	.	0.4	.
CC(C)(C)CC(=O)Nc1cccc(-c2cn3cccnc3n2)c1
    0.692	-1.0	5.5	2.7	i	.	10.6%	-3.4	-2.8
Cc1ccc(NC(=O)C2Cc3ccccc3CN2C(=O)c2ccccc2)cc1Cl (centres undefined)
    0.725	.	.	.	.	37.0	23.6%	.	-1.0
COc1cccc(CN(C)C(=O)C2CSC3(C)CCC(=O)N23)c1OC (centres undefined)
    0.704	12.7	6.8	-1.9	i	-0.6	-0.4%	-0.2	-0.5
CC(=O)Nc1ccc2ccccc2c1
    0.626	.	.	.	.	-30.7	3.4%	.	0.5
COc1ccc(NC(=O)Nc2ccc3c(c2)CC(=O)N([C@H](C)CO)C[C@H](C)[C@@H](CN(C)CC2CC2)O3)cc1
    .	4.0	3.0	-1.8	i	.	.	15.0	.
CN(C)S(=O)(=O)N1CCN(c2ccc(Cl)cc2)CC1
    0.625	.	.	.	.	5.4	66.5%	.	-0.9
C=CCNc1ncnc2c1ncn2C1OC(CO)C(O)C1O (centres undefined)
    0.72	.	.	.	.	-2.2	-2.5%	.	2.8

# More records.
# Results follow in this order: E coli growth	Ecoli rRNA inh	Ecoli rRNA inh OD600	Ecoli rRNA inh RFP	FGF22 binding	ALR inh	Vif A3G	AF4-AF9 inh	HNF4A DNA FP
CCCCn1nnnc1C(c1ccccc1)N1CCN(c2cccc(C(F)(F)F)n2)CC1 (centres undefined)
    .	-8.7	-3.5	-3.3	i	.	.	-17.3	-1.1
O=C(C[C@H]1C=C[C@@H](NC(=O)c2ccncc2)[C@@H](CO)O1)NCC1CCCCC1
    .	-2.8	-1.7	-2.1	i	.	.	-6.8	.
CC(C)(O)C#Cc1ccc([C@H]2[C@H](CO)N3CCCCN(C(=O)c4cccc(F)c4)C[C@@H]23)cc1
    .	4.2	9.4	-2.3	i	.	.	-5.9	.
Cc1cccc(C)c1N1CCN(C(=O)N2CCCCC2)CC1
    0.674	20.6	12.7	1.9	i	-4.4	16.8%	-2.9	1.1
O=C1[C@@H]2[C@H](C(=O)N1n1cnnc1)[C@H]1C=C[C@@H]2C1
    .	.	.	.	.	-14.3	9.7%	.	1.8
COc1ccccc1-c1cc(C(=O)N/N=C/c2ccc(C)o2)c2ccccc2n1
    .	3.6	14.4	5.3	i	.	.	5.2	4.5
COc1ccc(CS(=O)(=O)c2nc(C)cc(C)c2S(C)(=O)=O)cc1
    0.718	8.8	6.6	1.8	i	-21.6	?	-4.5	0.2
CC(=O)c1ccc(OC(=O)CCc2ccccc2)cc1
    0.697	4.1	1.7	-2.1	i	19.7	.	3.0	-2.1
CC(CCc1ccccc1)NC(=O)Cc1ccccc1 (centres undefined)
    0.748	6.7	3.6	-1.5	i	-2.3	-0.4%	1.7	-2.5
CCOc1ccc(C(=O)NC2CC(=O)N(c3ccc4c(c3)OCCO4)C2)cc1 (centres undefined)
    0.693	6.1	3.7	1.3	i	13.4	3.4%	4.0	-2.3

# Screens (PubChem)
